# T cruzi inh – blocks replication of Trypanosoma cruzi; T. cruzi beta-gal in NIH3T3, luminescence, 90 h; inhibition, % (test concentration not listed); 300,000 compounds, 1.4% hits; AID 1885;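 active means mean inhibition across valid replicates above about 55%, limit read from the data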;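 further: signal also drops with host cell toxicity which is not excluded here; 0% = plate median of DMSO wells and 100% = zero luminescence signal; higher percent means less beta-gal luminescence so fewer parasites; stock transfer was 50 nL into about 50 µL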
# Ecoli growth – E. coli growth inhibition. AID 1053175. OD600 absorbance (test concentration not listed). Escherichia coli growth, OD600, 23 h; hits give low values. 330,000 compounds, 0.21% hits;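 active means OD600 absorbance below the run mean of sample wells minus 3.6 SD, in any replicate, cut at about 0.56 in these data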;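 further: stock transfer was 300 nL into about 60 µL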
# UCH37 DUB inh – human UCH37 deubiquitinating enzyme inhibition; purified proteasome/UCH37, Ub-AMC cleavage fluorescence; AID 588478; inhibition, % (test concentration not listed); 330,000 compounds, 0.33% hits;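 active means mean of two replicates above 20%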;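 further: 0% = compound-free wells with enzyme and 100% = wells lacking proteasome; stock transfer was 100 nL into about 20 µL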
# Target sequence (Q9Y5K5 whole entry, looked up): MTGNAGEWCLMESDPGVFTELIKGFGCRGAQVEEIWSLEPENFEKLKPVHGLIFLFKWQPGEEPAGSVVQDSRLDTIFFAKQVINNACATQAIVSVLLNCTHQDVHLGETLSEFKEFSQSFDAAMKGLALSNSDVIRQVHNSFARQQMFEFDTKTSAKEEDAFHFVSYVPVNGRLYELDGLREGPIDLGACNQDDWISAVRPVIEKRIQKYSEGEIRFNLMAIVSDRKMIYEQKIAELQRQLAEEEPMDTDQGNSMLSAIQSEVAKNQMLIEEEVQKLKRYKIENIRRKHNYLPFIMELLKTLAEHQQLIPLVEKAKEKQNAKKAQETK
#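 system = Proteasome-associated human UCH37 deubiquitinase | amount = 0.15 nM proteasome as dispensed | medium = pH 7.4 Tris-HCl (50 mM) with ovalbumin, ATP-MgCl2, DTT | incubation = 30 min preincubation with enzyme, 25 min cleavage at room temperature | detection = AMC fluorescence 355/460 nm | read-out basis = percent inhibition | controls = no-proteasome and no-compound wells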
# Bfl-1 A1 inh – inhibitors of the anti-apoptotic protein A1, read as caspase activation; MEF A1-2A-BIM cells, Caspase-Glo 3/7 luminescence, 3 h; percent of clofoctol response, vehicle zero; caspase activation, % (test concentration not listed); 330,000 compounds, 0.066% hits;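 active means over half of replicate activation scores above 10%, or exactly half above 10 with the replicate mean above 10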;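 further: wells of about 30 µL received 50 nL stock; many hits fall short of the cut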
# rRNA inh HTS – inhibits bacterial ribosomal RNA function over humanized ribosomes; E. coli WT GFP vs humanized-ribosome RFP mutants, fluorescence, 24 h; hits give low values; DMSO median 0, no signal -100; GFP signal change (wild-type ribosome), % (concentration not given with the values); 350,000 compounds, 1.6% hits;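 active means significant combined selectivity score with lowered wild-type GFP, culture density cut under 30%, mutant RFP and density less affected; inactive means any of these conditions unmet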; further: one replicate is shown; some compounds called inactive have numbers as strong as hits
# MLL AF4-AF9 inh – MLL-AF4/AF9 protein interaction inhibition; 350,000 compounds, 0.47% hits; AID 651704; AlphaScreen, biotin-AF4 peptide binding to FLAG-AF9; inhibition, % at 10 µM;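 active means every replicate reaching a set inhibition limit, whatever the replicate mean, cut at about 25% in these data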;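 further: 0% = plate neutral control median and 100% = total signal loss; the record names both 10 and 1 µM as test concentration; the first replicate is given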
# Target sequence (P42568 whole entry, looked up): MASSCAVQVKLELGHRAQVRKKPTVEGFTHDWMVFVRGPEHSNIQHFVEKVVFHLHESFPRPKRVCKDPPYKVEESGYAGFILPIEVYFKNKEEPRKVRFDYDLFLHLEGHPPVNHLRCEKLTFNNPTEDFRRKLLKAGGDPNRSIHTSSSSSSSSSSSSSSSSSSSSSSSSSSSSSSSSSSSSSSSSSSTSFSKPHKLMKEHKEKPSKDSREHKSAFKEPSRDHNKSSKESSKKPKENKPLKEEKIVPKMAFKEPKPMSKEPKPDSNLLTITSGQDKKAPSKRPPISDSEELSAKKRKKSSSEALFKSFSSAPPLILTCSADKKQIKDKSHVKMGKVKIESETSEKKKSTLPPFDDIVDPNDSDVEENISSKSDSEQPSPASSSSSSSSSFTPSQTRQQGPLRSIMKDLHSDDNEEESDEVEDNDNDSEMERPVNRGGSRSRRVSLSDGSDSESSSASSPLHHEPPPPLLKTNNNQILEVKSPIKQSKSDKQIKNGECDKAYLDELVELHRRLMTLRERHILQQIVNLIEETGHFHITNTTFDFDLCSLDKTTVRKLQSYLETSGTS
# Beta apoptosis – blocks beta cell apoptosis. INS-1E cytokine-induced death, ATP luminescence, 48 h; percent of positive-control rescue, neutral wells zero. protection from apoptosis, % (concentration not given with the values). 300,000 compounds, 0.8% hits. AID 435005;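 active means all replicates at 75% or more, or half of them and the mean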;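 further: 0% = cytokine-treated negative control wells and 100% = positive control rescue; higher means more ATP so stronger rescue from cytokine killing; wells of about 40 µL received 100 nL stock; the first replicate is given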
# FGF22 binding – binders of recombinant human FGF22 by thermal shift; SYPRO orange fluorescence; percent of sucrose octasulfate shift, DMSO zero; calls only at 9.99 µM; 340,000 compounds, 1.5% hits;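 active means melting point raised past a set limit in the mean and every replicate; three in four hits are not shown here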
# Target sequence (Q9HCT0 whole entry, looked up): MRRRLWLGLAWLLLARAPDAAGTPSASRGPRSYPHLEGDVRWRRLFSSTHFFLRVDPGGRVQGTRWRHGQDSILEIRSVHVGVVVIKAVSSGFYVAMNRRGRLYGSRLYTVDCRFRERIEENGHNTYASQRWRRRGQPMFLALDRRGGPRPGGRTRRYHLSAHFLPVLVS
# rRNA inh HTS OD600 – further read-out of rRNA inh HTS, marked with its call; OD600 change, %; measured here: OD600 growth;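 optical density of the mix in the first replicate; 0 = DMSO median and -100 = no signal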
# rRNA inh HTS RFP – second read-out of rRNA inh HTS, no call of its own (marks repeat the call); RFP signal change, %; measured here: RFP humanized mutant strains;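 first replicate; 0 = DMSO median and -100 = no signal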
# An asterisk follows results filed as active; i = inactive; · = not tested or not shown; & = joins results of further samples.
SMILES,T cruzi inh,Ecoli growth,UCH37 DUB inh,Bfl-1 A1 inh,rRNA inh HTS,rRNA inh HTS OD600,rRNA inh HTS RFP,MLL AF4-AF9 inh,Beta apoptosis,FGF22 binding
Cc1cccc(N2CCN(C(=O)/C=C/c3cccs3)CC2C)c1 (centres undefined),3,0.7,6.3,1.2,-7,-8,-2.1,0.1,0,i
CN1C(C(=O)NCc2ccc(OC(F)(F)F)cc2)CC2Cn3c(nc4cc(Cl)c(Cl)cc43)C21 (centres undefined),32,0.67,5.1,0.1,-4,-5,-5.2,1.9,-13,i
c1ccc2c(c1)CCc1ccccc1C2=C1CCNCC1,4,·,·,0.2,-36*,-19*,-3.9*,1.3,-10,i
COc1ccc2c(CC(=O)NCC3CCC(C(=O)O)CC3)cc(=O)oc2c1 (centres undefined),-4,0.73,-47,0.0,·,·,·,-4.7,-2,·
COC(=O)c1cc(Cl)c(NC(=O)/C=C/c2ccc(Cl)cc2)cc1OC,-78,0.72,-71,-0.3,·,·,·,·,4,·
COc1ccc(-c2noc(CCCC(=O)O)n2)cc1,-4,0.67,0.6,-1.5,·,·,·,·,-1,·
COc1ccc(NC(=O)C2CCCCN2CC(=O)OCc2ccccc2)cc1OC (centres undefined),-10,0.72,1.5,-0.3,·,·,·,·,-1,·
CC(=O)Nc1sc2c(c1CN1CCN(C)CC1)CCCC2,-2,0.75,0.5,0.2,·,·,·,·,-11,·
COc1ccccc1C(C)NC(=O)CN(C)CC(=O)Nc1c(C)cccc1C (centres undefined),·,0.67,0.5,0.1,·,·,·,-1.3,-8,i
N=C1/C(=C/c2cccn2-c2ccc([N+](=O)[O-])cc2)C(=O)N=C2SC=CN12,5,0.76,4.1,0.1,-7,0,5.6,-0.8,27,i
COc1ccc(-c2cc(C(=O)N3CCCC(C(F)(F)F)C3)c3ccccc3n2)cc1 (centres undefined),·,0.72,-213,0.1,-8,-17,-1.5,-2.0,1,i
Cc1ccc(-c2nnc(Nc3cccc(O)c3)c3ccccc23)cc1S(=O)(=O)NCCO,14,0.65,3.2,1.2,-29,-33,-3.5,0.4,-3,i
O=c1[nH]c(NCCO)nc2c1C1(CCCCC1)Cc1ccccc1-2,·,0.7,-309,0.8,·,·,·,·,10,·
COc1cc(C2C3=C(CC(C)(C)CC3=O)OC(N)=C2[N+](=O)[O-])ccc1O (centres undefined),-11,0.71,10,0.7,17,8,-0.8,0.6,0,i
COc1ccc(-c2nc3c(n2O)CCc2c-3no[n+]2[O-])cc1,-10,0.62,15,-0.5,-12,-7,-2.3,-6.5,-6,·
Cc1nc(-c2cccs2)sc1C(=O)NN,-6,0.69,2.9,-0.3,0,2,-1.1,1.1,-2,i
CCCCn1c(SCC(=O)NNC(=O)c2ccccc2)n[nH]c1=O,·,0.72,2.7,0.1,9,19,-1.3,-0.3,-3,i
CCS(=O)(=O)c1ccc(-c2cccc(NC(=O)c3ccc(Br)o3)c2)nn1,-25,0.71,1.2,0.2,5,6,-0.4,-0.4,11,i
O/N=C\c1ccc2noc(-c3ccc(Cl)cc3)c2c1,0,·,·,2.0,3,9,0.1,-0.2,1,i
COc1ccc2cc(C3CC(c4cccs4)=NN3C(C)=O)c(Cl)nc2c1 (centres undefined),5,0.65,-126,0.1,2,9,1.6,2.3,-3,i
O=C(c1cnc2n(c1=O)CCS2)N(c1ccccc1)C1CCCCC1,-14,0.69,-0.1,0.6,·,·,·,·,9,·
COc1cc(CNCCO)ccc1OCCc1ccccc1,29,0.72,2.1,-0.3,0,2,0.5,4.3,-3,i
CCC/C(O)=C1\C(=O)CCCC1=NC(C)C(=O)O (centres undefined),0,0.68,3.1,0.2,8,13,-3.5,·,-9,·
O=C(Cn1c(=O)n(Cc2ccccc2)c(=O)c2cc(Cl)ccc21)NCC1CCCO1 (centres undefined),19,0.63,-0.7,0.2,0,13,5.8,-2.6,0,i
O=C(Nc1ccc(Cl)c(S(=O)(=O)N2CCOCC2)c1)C1CCCC1,·,0.68,1.8,0.0,2,-5,-1.1,-0.5,-3,i
NC(=O)CC(c1ccccc1)c1ccco1 (centres undefined),-15,0.71,0.7,0.6,·,·,·,·,2,·
N#C/C(=N\Nc1ccccc1[N+](=O)[O-])C(=N)N1CCCCC1,15,·,·,-3.5,-5,0,-1.4,3.4,-2,i
CSc1nnc(C)c(=O)n1COC(=O)c1cc(Cl)ccc1[N+](=O)[O-],4,0.64,5.8,0.4,-3,-2,-2.0,5.8,-5,i
CCCC(=O)Nc1sc2c(c1C(=O)OCC)CC(C)(C)OC2,25,0.71,-3.4,0.5,16,10,2.8,-2.0,8,i
CN(Cc1ccc(F)cc1)Cc1nc(CCc2ccccc2)no1,-1,0.73,3.0,0.9,-19*,-14*,7.3*,-2.4,0,i
Cc1cc(S(=O)(=O)N2CCCCC2CCNC(=O)C(=O)NC2CC2)ccc1F (centres undefined),-4,0.71,1.7,-0.1,2,0,1.8,-0.3,·,i
O=C(NCCOC(=O)c1c(F)cccc1Cl)c1c(F)cccc1Cl,-3,0.67,0.9,0.4,-6,4,0.1,-5.8,-6,i
Cc1cc(C)c2nc(N(CCN(C)C)C(=O)c3ccc(S(=O)(=O)N(C)CC4CCCO4)cc3)sc2c1 (centres undefined),40,0.67,4.3,0.6,2,1,0.6,13,-11,i
CCCn1c(N)c(N(CCOC)C(=O)c2cccc(F)c2)c(=O)[nH]c1=O,-12,0.68,1.4,1.4,8,13,1.2,0.7,-9,i
C(=C\c1ccccc1)/CN1CCN(c2ncnc3c2oc2ccccc23)CC1,-12,0.68,-3.1,0.0,·,·,·,·,50,·
CC1(C)C(C=C(Cl)Cl)C1C(=O)NC(O)C(=O)c1ccccc1 (centres undefined),-5,0.66,0.9,1.5,-8,-12,8.2,-0.7,-3,i
O=[N+]([O-])c1ccccc1OCCN1CCOCC1,-11,0.62,1.7,0.5,7,1,-6.8,-0.4,·,i
COc1ccccc1C(=O)Nc1nc(-c2cccs2)c(NC(C)=O)s1,2,0.74,-48,-1.5,·,·,·,·,4,·
CC(=O)Cn1nnc2sc(-c3ccccc3)cc2c1=O,12,0.68,-79,1.0,7,8,-3.1,4.4,2,i
CC(C)(C)n1nc2c(c1NC(=O)c1ccc(S(=O)(=O)N3CCCC3)cc1)CS(=O)C2 (centres undefined),11,0.73,4.1,-0.3,·,·,·,·,-2,·
CCCCN(C(=O)c1cc(-c2ccc(F)cc2)nc2ccccc12)c1c(N)n(CCCC)c(=O)[nH]c1=O,·,0.72,-10,·,8,0,-2.1,1.2,·,i
O=C(CSCC(=O)OCC(=O)c1ccc(Br)cc1)Nc1ccc(Br)cc1,-11,0.68,2.8,0.3,·,·,·,·,·,·
Cc1ccccc1OCC(O)CN1CCN(C)CC1 (centres undefined),63*,0.69,4.9,0.7,10,7,8.8,2.7,-5,i
CCc1nc(SCC(=O)Nc2nnc(CC)s2)c2c(C)c(C)sc2n1,0,0.71,3.1,0.0,8,-6,-3.3,-2.9,6,i
NC(=O)CSc1nnc(-c2ccc(S(=O)(=O)N3CCOCC3)cc2)n1Cc1ccccc1,-10,0.68,0.3,0.3,·,·,·,·,-5,·
CCCCN(C(=O)c1ccc(Cl)cc1)C1CC2CCC(C1)N2C (centres undefined),0,0.69,3.7,0.3,0,4,1.1,1.7,2,i
CN(C1CCCCC1)S(=O)(=O)c1cccc2nsnc12,-10,0.73,-0.5,-0.7,-4,-13,-1.0,5.0,-9,i
NS(=O)(=O)c1ccc(-n2nncc2C23CC4CC(CC(C4)C2)C3)cc1,-6,0.67,3.5,0.6,·,·,·,·,3,·

# Of the compounds above, 4 have an aryl thioether with sulfur outside any ring:
SMILES,T cruzi inh,Ecoli growth,UCH37 DUB inh,Bfl-1 A1 inh,rRNA inh HTS,rRNA inh HTS OD600,rRNA inh HTS RFP,MLL AF4-AF9 inh,Beta apoptosis,FGF22 binding
CCCCn1c(SCC(=O)NNC(=O)c2ccccc2)n[nH]c1=O,·,0.72,2.7,0.1,9,19,-1.3,-0.3,-3,i
CSc1nnc(C)c(=O)n1COC(=O)c1cc(Cl)ccc1[N+](=O)[O-],4,0.64,5.8,0.4,-3,-2,-2.0,5.8,-5,i
CCc1nc(SCC(=O)Nc2nnc(CC)s2)c2c(C)c(C)sc2n1,0,0.71,3.1,0.0,8,-6,-3.3,-2.9,6,i
NC(=O)CSc1nnc(-c2ccc(S(=O)(=O)N3CCOCC3)cc2)n1Cc1ccccc1,-10,0.68,0.3,0.3,·,·,·,·,-5,·

# New compounds follow
SMILES,T cruzi inh,Ecoli growth,UCH37 DUB inh,Bfl-1 A1 inh,rRNA inh HTS,rRNA inh HTS OD600,rRNA inh HTS RFP,MLL AF4-AF9 inh,Beta apoptosis,FGF22 binding
O=C(CN1CCN(C(=O)N2CCCCC2)CC1)Nc1ccc(F)cc1,-10,0.71,-1.0,0.2,·,·,·,·,-4,·
CCOC(=O)c1ccc(-c2ccc(C=O)o2)cc1,-7,0.64,-22,0.8,-7,2,8.7,3.1,22,i
CCN1CCN(c2ccc(S(=O)(=O)N3CCOCC3)cc2NC(=O)CCC(C)C)CC1,56*,0.7,0.9,0.6,9,7,0.6,-6.3,-9,i
Cc1ccc(CN2C(=O)CCC2C(=O)NCCCN2CCCCC2C)cc1 (centres undefined),-3,0.7,0.1,0.7,·,·,·,·,0,·
Cc1ccc(-c2nc(C=Nc3cccc(C)c3)c(O)o2)cc1,-9,0.69,-2.4,-0.5,12,20,1.9,-0.9,-5,i
O/C(=C\Sc1nnc(Cc2ccccc2)o1)c1ccc(Br)cc1,-5,0.68,0.3,0.2,·,·,·,·,8,·
Cc1nc2c(C)cccn2c(=O)c1NC(=O)c1ccc(Br)o1,-6,0.68,11,0.6,12,5,0.2,-0.1,2,i
COc1ccc(C2=NN(C(=O)CSc3nc(=O)n4ccc(C)cc4n3)C(c3ccc(C)cc3)C2)cc1 (centres undefined),47,0.72,-28,0.6,1,5,5.3,4.7,·,i
O=C(COc1ccc2c3c(c(=O)oc2c1)CCCC3)NCC(O)c1ccccc1 (centres undefined),3,0.76,-6.6,0.6,10,8,-3.1,-23,-4,i
Cc1cc(C(=O)NNC(=S)NCc2ccco2)nn1C,0,·,·,-0.5,18,16,3.9,-1.8,-4,i
Cc1cc(C)c(S(=O)(=O)Nc2ccnc(-c3cccnc3)n2)c(C)c1,-6,0.69,0.7,-0.3,2,3,-0.1,-3.5,-5,i
COC(=O)CCCC(=O)N1CCC(n2nccc2NC(=O)CCOc2ccccc2)CC1,-5,0.68,-2.5,-1.1,7,8,-2.2,-1.9,-2,i
O=C(COC(=O)c1cc[n+]([O-])cc1)Nc1ccc(SC(F)F)cc1,-4,0.61,0.9,-1.0,-7,-6,0.9,-2.3,-5,i
O=C(Nc1ccccc1)c1cc([N+](=O)[O-])ccc1NCc1cccnc1,1,0.71,2.7,0.6,-3,5,-1.7,11,3,i
CCCC(CCC)C(=O)O,-8,0.71&0.68,-1.7&-0.7,0.3&0.1,10&9,3&9,-0.5&-0.8,-2.7&-1.5,-6&-4,i
CN(C)c1cccc2c(/C=N/O)ccc(N(C)C)c12,-6,·,·,1.1,15,1,7.1,2.0,-9,i

# Screening results as filed in PubChem BioAssay.

# Only part of the results is shown (hit frequency here may not be typical).
